NPR1 antag = Natriuretic polypeptide receptor (hNpr1) antagonism - Primary qHTS; Potency, µM (titrated, usually from 46.3 µM), for inactives: at the highest dose activity change, negative = inhibition, hits mostly inhibitors; HEK293 hNpr1 GloSensor cGMP, ANP-stimulated luminescence; Atrial natriuretic peptide receptor 1 (Homo sapiens), P16066; 76,000 compounds, 1.6% hits; active = well fitted inhibition curve with a large enough effect; inconclusive = small, poorly fitted or top-dose-only effect; inactive = no such curve, though single readings can be large or run the other way;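 further: nearly all actives have a fitted effect of over 60% in size; nearly all hits also lower the signal before the agonist is added; a reference antagonist and vehicle were the controls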
Target sequence (P16066 whole entry, looked up): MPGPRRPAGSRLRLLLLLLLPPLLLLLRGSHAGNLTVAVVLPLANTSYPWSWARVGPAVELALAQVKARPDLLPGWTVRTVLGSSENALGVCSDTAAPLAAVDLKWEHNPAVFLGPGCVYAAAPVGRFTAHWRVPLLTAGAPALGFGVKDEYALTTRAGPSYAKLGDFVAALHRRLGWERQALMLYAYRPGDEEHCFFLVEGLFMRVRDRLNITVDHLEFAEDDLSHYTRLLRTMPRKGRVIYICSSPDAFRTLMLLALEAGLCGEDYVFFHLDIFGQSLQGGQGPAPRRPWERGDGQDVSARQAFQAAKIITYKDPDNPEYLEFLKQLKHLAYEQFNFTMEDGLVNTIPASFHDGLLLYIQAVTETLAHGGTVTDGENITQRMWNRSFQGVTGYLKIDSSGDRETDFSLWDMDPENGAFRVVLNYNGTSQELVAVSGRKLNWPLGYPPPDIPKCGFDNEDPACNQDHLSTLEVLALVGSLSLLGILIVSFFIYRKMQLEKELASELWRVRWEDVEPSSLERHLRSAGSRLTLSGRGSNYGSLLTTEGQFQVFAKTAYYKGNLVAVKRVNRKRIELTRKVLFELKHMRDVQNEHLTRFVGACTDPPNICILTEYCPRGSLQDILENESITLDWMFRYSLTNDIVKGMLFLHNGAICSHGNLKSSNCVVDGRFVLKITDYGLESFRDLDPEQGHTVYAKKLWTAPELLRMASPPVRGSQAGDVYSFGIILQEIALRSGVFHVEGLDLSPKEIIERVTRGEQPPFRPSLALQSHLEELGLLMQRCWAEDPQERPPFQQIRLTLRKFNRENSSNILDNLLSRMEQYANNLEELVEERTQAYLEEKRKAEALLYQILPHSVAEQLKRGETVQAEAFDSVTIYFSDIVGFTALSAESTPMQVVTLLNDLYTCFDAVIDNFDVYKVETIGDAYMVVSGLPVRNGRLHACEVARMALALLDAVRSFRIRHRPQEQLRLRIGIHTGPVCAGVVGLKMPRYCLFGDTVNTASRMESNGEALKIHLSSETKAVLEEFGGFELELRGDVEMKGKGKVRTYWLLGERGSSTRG
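Compound pre-incubated 30 min at room temperature on GloSensor-loaded HEK293 cells stably carrying hNpr1 and the pGS-40F cGMP biosensor. Stimulation uses hNppA at 0.1 nM final; luminescence is taken at baseline and 20 min post-agonist.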
An asterisk follows results filed as active; [ ] = remark or other dose. On the % scale 0 is the no-effect control and ±100 the full control effect; potency means the concentration at half of the fitted maximal effect. The list is partial; rates above refer to the full screens.

For CC(C)(C)NC(=O)N1CCCC(c2nc(CCOCC3CC3)no2)C1 (configuration not stated) the results were NPR1 antag 1%.
`CN(Cc1cccnc1)C(=O)CCC1CCN(C(=O)c2ccccc2)CC1` gave NPR1 antag 6%.
Screening C[C@]1(CO)C2CC[C@@H](O)[C@@H](CC(=O)NCc3ccccc3)[C@]2(C)CC[C@H]1OC(=O)Nc1ccccc1 (some centres not stated) returned NPR1 antag 1%.
Cc1c(O)cccc1C(=O)N1CCC2(CC1)Nc1ccccc1NC2=O was read as NPR1 antag -1%.
`Cc1noc(-c2ccccc2Cl)c1C(=O)NCc1ccccc1Cl` gave NPR1 antag -1%.
Screening COc1ccc(C)cc1-c1nccc2c(=O)cc(-c3cnn(C)c3)oc12 returned NPR1 antag 1%[70.6 µM].
Screening COC1CN(c2ccc(C)cc2)C12CCN(C(=O)COc1ccccc1)CC2 (configuration not stated) returned NPR1 antag -1%.
`O=C(c1cccc(F)c1)N1CCCC(c2noc(COc3ccccc3)n2)C1` (configuration not stated) gave NPR1 antag -5%.
Cc1c(-c2ccccc2F)[nH]c2ccc(CNC(=O)CN3CC(=O)NC3=O)cc12 was read as NPR1 antag -5%.
Cn1cc(C(=O)NCC2CN(CCCc3ccccc3)CC23CN(c2ccccc2)C3)cn1 (configuration not stated) was read as NPR1 antag -9%.
CCOc1cccc(CNC(=O)CN2CC3CC(C2)[C@H]2CCCC(=O)N2C3)c1 (some centres not stated) was read as NPR1 antag -10%.
For COCC1(c2nc(C3CCOCC3)nn2-c2ccncc2C)CC1 the results were NPR1 antag 0%.
`CC(C)CNC(=O)N1CCCC(c2noc(COc3ccccc3F)n2)C1` (configuration not stated) gave NPR1 antag 5%.
COc1ccc(OCc2nc(C)c(CCO)c(=O)n2CC(=O)Nc2cc(OC)ccc2OC)cc1 was read as NPR1 antag -3%.
For Cc1ccccc1C(=O)N1CCC2(CC1)Cc1ccccc1NC2=O the results were NPR1 antag 25%.
`CC(=O)N[C@@H]1C=C[C@@H](c2c(C)nn(-c3ccc(C(C)(C)C)cc3)c2C)C1` gave NPR1 antag inconclusive.
COC(=O)CNC(=O)C1CN(c2ccc(OC)cc2)C(=O)N1 (configuration not stated) was read as NPR1 antag 0%[70.6 µM].
O=C(Cc1ccc(N(Cc2ccccc2)C(=O)c2ccco2)cc1)NCc1ccc(F)cc1 was read as NPR1 antag -13%.
COC(=O)c1c(NC(C)=O)c2cc(NC(C)CC(C)(C)O)cnc2n1CCc1ccc(OC)cc1 (configuration not stated) was read as NPR1 antag 5%.
Screening COc1ccc(-c2noc(Nc3cc(OC)c(OC)c(OC)c3)n2)cc1OC returned NPR1 antag -28%.
`O=C(NCc1nnc2n1CCCC2)[C@H]1CNC[C@H](C(=O)N2CCCC2)C1` gave NPR1 antag 3%.
For COCCN1C(=O)c2ccccc2C(C(=O)Nc2nc(C)c(C)s2)C12CCCCC2 (configuration not stated) the results were NPR1 antag -7%.
Screening CS(=O)(=O)N1CCC(C2CCN(C(=O)Cc3cccc(F)c3)C2)CC1 (configuration not stated) returned NPR1 antag 7%.
`C=CCNC(=O)C(NC(=O)c1cccs1)C1CCN(C(=O)c2ccc(F)cc2)CC1` (configuration not stated) gave NPR1 antag 0%.
Screening CC(C)(Oc1nn(Cc2cccc(Cl)c2)c2ccccc12)C(=O)N1CCOCC1 returned NPR1 antag inconclusive.
For O=C(c1ccncc1F)N1CCCn2ccnc2C1c1ccccc1 (configuration not stated) the results were NPR1 antag -5%.
`CC1CCN([C@@H]2[C@H](O)[C@H](CO)O[C@@H]2CNC(=O)Nc2ccccc2)CC1` gave NPR1 antag -1%[70.6 µM].
O=C(NCc1nnc2ccc(-c3ccc(Cl)cc3)nn12)c1ccco1 was read as NPR1 antag 1%.
Screening O=C1NCCCCCN(Cc2ccc(F)cc2F)[C@H]2CCC[C@@H]12 returned NPR1 antag -13%.
`Cc1noc2c(N(C)C)cc(-c3ccc(F)cc3)nc12` gave NPR1 antag 0%[70.6 µM].
Screening CN(CC1CCOCC1)S(=O)(=O)c1ccc(Cl)cc1 returned NPR1 antag -16%.
CC1=C[C@@H](CO)[C@H](C(C)C)C[C@H]1CC(=O)N1CCN(CCO)CC1 was read as NPR1 antag -1%[70.6 µM].
For CCn1ncc(N2CCC(NC(=O)c3cccc(C)c3)CC2)cc1=O the results were NPR1 antag 3%.
`CN1CCc2c([nH]c3ccccc23)C12CCN(C(=O)C1CC1)CC2` gave NPR1 antag 0%.
Screening Cc1nc(NCc2ccc(S(=O)(=O)N(C)C)cc2)cc(C2CC(O)C2)n1 (configuration not stated) returned NPR1 antag 1%.
`COc1ccc(NC(=O)N2CCC3(CCNCC3)C2)cc1` gave NPR1 antag -1%.
`COC(=O)[C@@H]1Cc2ncn(C)c2CN1C(=O)c1cccs1` gave NPR1 antag -2%[70.6 µM].
COCCOc1ccc2c(n1)CCN(C(=O)c1ccco1)C2 was read as NPR1 antag 7%.
For CC(C)CN1C(=O)c2ccccc2C(C(=O)Nc2ccc(C(N)=O)cc2)C12CCCCC2 (configuration not stated) the results were NPR1 antag 0%.
For Cc1ccc(CCC(=O)N2CCC(CO)(CN3CCCC3)CC2)cc1 the results were NPR1 antag 0%.
For CCCCc1cc(C[C@H]2CNCC[C@H]2CC(=O)Nc2nccs2)no1 the results were NPR1 antag -12%[70.6 µM].
COc1cc(CC2(CCC(=O)N3CCC(Oc4cccc(F)c4)CC3)CCC(=O)N2)ccc1F (configuration not stated) was read as NPR1 antag -1%.
CCN1c2cc(C(=O)Nc3ccc(C#N)cc3)ccc2C(=O)N2CCCCCC21 (configuration not stated) was read as NPR1 antag -21%.
O=C(c1ccc(Br)o1)N1CCc2nn(CC3CC3)c(=O)n2CC1 was read as NPR1 antag 3%.
Screening FC(F)(F)Oc1ccc(Nc2cnc3ccc(N4CCOCC4)nn23)cc1 returned NPR1 antag -5%[70.6 µM].
For CCc1nnc(CN2CCC(N3CCCC(C(=O)N4CCOCC4)C3)CC2)o1 (configuration not stated) the results were NPR1 antag 0%.
`COc1ccc(-c2cc(-c3ccc(OC)nc3)cn3cncc23)cc1` gave NPR1 antag -12%[70.6 µM].
For CCN(CC)C(=O)c1ccc(C2CCCN2C(=O)c2ccc(OC)o2)s1 (configuration not stated) the results were NPR1 antag 3%.
`Cn1cnc(C(=O)N2[C@@H]3CC[C@H]2CC(NC(=O)c2ccncc2)C3)c1` (some centres not stated) gave NPR1 antag 3%.
`CC(=O)NCCC(=O)N1CCOc2c(O)cc(-c3cccc(Cl)c3)cc2C1` gave NPR1 antag 4%.
For CC[C@H]1CN(C(=O)Nc2cccc(OC)c2)CC[C@H]1CC(=O)N[C@@H](CO)CC(C)C the results were NPR1 antag 1%[70.6 µM].
Screening O=C1CC(NS(=O)(=O)N2CCCCC2)CN1CCCc1ccccc1 (configuration not stated) returned NPR1 antag 1%.
CC(C)(C)NC(=O)N1CCCCCCNC(=O)[C@@H]2C[C@@H](C(=O)NCCc3cnc[nH]3)C[C@@H]21 was read as NPR1 antag -3%.
`CC(C)Nc1ccc2nnc(C3CCC3)n2n1` gave NPR1 antag -2%.
Screening O=C(Cc1ccccc1)N1CCC(Oc2cnc3c(ccn3-c3cncnc3)c2)CC1 returned NPR1 antag -14%[70.6 µM].
Cc1ccc(OC2(C(=O)NC(C)c3cn4ncsc4n3)CCNCC2)cc1 (configuration not stated) was read as NPR1 antag 2%.
For Cc1ccc(CN2C(=O)COC[C@H]2C(=O)Nc2cccc(C)c2)cc1 the results were NPR1 antag -4%.
For Cc1csc(C(C)N(C)C(=O)c2ccc(CCC(C)(C)O)cc2)n1 (configuration not stated) the results were NPR1 antag 6%.
For O=C(NCC1CC1)c1cn(C2CN(C(=O)NCc3ccccc3)C2)nn1 the results were NPR1 antag 0%.
`O=C(O)COc1ccc(-c2nccc3c2C(=O)N(Cc2c[nH]c4ccccc24)CC(COc2ccccc2F)O3)cc1` (configuration not stated) gave NPR1 antag 1%.
Cc1ccc(NC(=O)N2CCC(OC3CCN(S(C)(=O)=O)CC3)CC2)cc1C was read as NPR1 antag 4%.
For CCOCc1nc(C2CCCN(C(=O)c3ccoc3)C2)no1 (configuration not stated) the results were NPR1 antag -3%.
For COCC(=O)N1CCC(OC2CCN(Cc3cccnc3)CC2)CC1 the results were NPR1 antag 2%.
`CCc1ccc(CNC(=O)c2cc3c(N4CCSCC4)nc(C)cn3n2)cc1` gave NPR1 antag 4%.
Screening O=C(Nc1ccc(=O)n2c1[C@@H]1C[C@@H](CN(C(=O)COc3ccccc3)C1)C2)c1cncnc1 returned NPR1 antag 1%.
Screening CCN(CC)Cc1ccc2c(c1)CN(C(=O)COc1ccc(C)cc1)CCO2 returned NPR1 antag -3%.
CC(C)CCN1CCC(N2CCN(C(=O)c3ccc(F)cc3F)CC2)C1=O (configuration not stated) was read as NPR1 antag 7%.
`COC[C@@H]1CN(Cc2ccc3[nH]ccc3c2)C[C@H]1c1nc(C)no1` gave NPR1 antag 6%.
`CC1=C[C@@H](CNS(=O)(=O)c2ccc(C#N)cc2)[C@H](C(C)C)C[C@H]1CC(=O)N1CCOCC1` gave NPR1 antag 6%.
O=C1Nc2ccc(-c3ccccc3F)cc2C(=O)N2CCN(C(=O)c3ccco3)C[C@@H]12 was read as NPR1 antag 1%[70.6 µM].
Screening CC(C)CCN1CCn2c(nnc2C2CCCNC2)C1 (configuration not stated) returned NPR1 antag 5%[70.6 µM].
`c1ccc(-c2noc(-c3nc(-c4ccc5c(c4)OCO5)no3)n2)cc1` gave NPR1 antag 0%.
C[C@H]1[C@@H]2[C@@H](O)C([C@H](C)C(=O)N(C)CCC#N)CC[C@@]2(C)CC[C@@H]1NC(=O)C1CCCCC1 (some centres not stated) was read as NPR1 antag 2%.
For COc1ccccc1CNC(=O)CC1CCCN(c2cnn(CC3CC3)c(=O)c2)C1 (configuration not stated) the results were NPR1 antag 0%.
COCCN1CC2CN(C(=O)CCCc3ccccc3)CC(C1)O2 was read as NPR1 antag 1%.
`CCn1cc(S(=O)(=O)N2CCCCC2c2noc(COCCOC)n2)cn1` (configuration not stated) gave NPR1 antag 6%.
For O=C1NCCCCCCN(C(=O)c2ccc3ccccc3n2)[C@H]2CCC[C@@H]12 the results were NPR1 antag -2%.
For CCOC(=O)C1=CN(CC(=O)Nc2cc(Cl)ccc2C)S(=O)(=O)N=C1C the results were NPR1 antag -30%.
Screening CC(=O)N[C@H](CC(C)C)c1nc(-c2ccc(C)nn2)no1 returned NPR1 antag 0%.
For COc1ccc(CC(=O)Nc2ccc([C@@H](O)[C@H]3COCC(=O)N3CC3CCCCC3)cc2)cc1 the results were NPR1 antag -14%.
For COCCNC(=O)c1ccc2c(c1)C1(CCN(CC3CC3)C1)CN2Cc1ccccc1 (configuration not stated) the results were NPR1 antag -2%[70.6 µM].
For CN(C)C(=O)c1ccc(CC2CCN(C(=O)CC3CCCCC3)CC2)cc1 the results were NPR1 antag 11µM*.
`CNc1cc(C)nc(N2CC[C@H](N3CCOCC3)[C@H](CCC(=O)O)C2)n1` gave NPR1 antag 0%.
Screening COc1ccc(CN2CCC3(CC2)CC(c2cccc(C(F)(F)F)c2)=NO3)cc1 returned NPR1 antag 2%.

13 neighbouring entries already listed, for reference:
`CC1=C[C@@H](CNS(=O)(=O)c2ccc(C#N)cc2)[C@H](C(C)C)C[C@H]1CC(=O)N1CCOCC1` gave NPR1 antag 6%.
O=C1Nc2ccc(-c3ccccc3F)cc2C(=O)N2CCN(C(=O)c3ccco3)C[C@@H]12 was read as NPR1 antag 1%[70.6 µM].
Screening CC(C)CCN1CCn2c(nnc2C2CCCNC2)C1 (configuration not stated) returned NPR1 antag 5%[70.6 µM].
`c1ccc(-c2noc(-c3nc(-c4ccc5c(c4)OCO5)no3)n2)cc1` gave NPR1 antag 0%.
C[C@H]1[C@@H]2[C@@H](O)C([C@H](C)C(=O)N(C)CCC#N)CC[C@@]2(C)CC[C@@H]1NC(=O)C1CCCCC1 (some centres not stated) was read as NPR1 antag 2%.
For COc1ccccc1CNC(=O)CC1CCCN(c2cnn(CC3CC3)c(=O)c2)C1 (configuration not stated) the results were NPR1 antag 0%.
COCCN1CC2CN(C(=O)CCCc3ccccc3)CC(C1)O2 was read as NPR1 antag 1%.
`CCn1cc(S(=O)(=O)N2CCCCC2c2noc(COCCOC)n2)cn1` (configuration not stated) gave NPR1 antag 6%.
For O=C1NCCCCCCN(C(=O)c2ccc3ccccc3n2)[C@H]2CCC[C@@H]12 the results were NPR1 antag -2%.
For CCOC(=O)C1=CN(CC(=O)Nc2cc(Cl)ccc2C)S(=O)(=O)N=C1C the results were NPR1 antag -30%.
Screening CC(=O)N[C@H](CC(C)C)c1nc(-c2ccc(C)nn2)no1 returned NPR1 antag 0%.
For COc1ccc(CC(=O)Nc2ccc([C@@H](O)[C@H]3COCC(=O)N3CC3CCCCC3)cc2)cc1 the results were NPR1 antag -14%.
For COCCNC(=O)c1ccc2c(c1)C1(CCN(CC3CC3)C1)CN2Cc1ccccc1 (configuration not stated) the results were NPR1 antag -2%[70.6 µM].

The list goes on:
`CS(=O)(=O)c1ccc(OCC2(CNC3CCC3)C[C@@H](O)[C@@H](O)C2)cc1` (some centres not stated) gave NPR1 antag 2%[70.6 µM].
FC(F)(F)Oc1cccc(CN2CCNc3cc(Nc4cccnc4)ncc3C2)c1 was read as NPR1 antag -1%[70.6 µM].
`O=C(COc1ccccc1)Nc1ccc([C@@H](O)[C@H]2COCC(=O)N2)cc1` gave NPR1 antag 0%[70.6 µM].
`COc1cccc(-c2ccccc2NC(=O)C2CCN(CC=C(C)C)CC2)c1` gave NPR1 antag 4%.

Screening data: PubChem BioAssay, National Center for Advancing Translational Sciences (NCATS)
